Screening data from PubChem BioAssay.
Bst PK mod – modulators of Bacillus stearothermophilus pyruvate kinase; Potency, µM; AID 361; partly purified Bacillus stearothermophilus pyruvate kinase, luminescence ATP production; ribose 5-phosphate activator present at AC10; 51,000 tested, 1.2% active; in the data active means potency below about 11 µM; inconclusive means mostly about 12 µM to 25 µM; inactive means weaker than that;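 the screen sought inhibitors and activators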;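 also: potency is read from the fitted curve at half-maximal effect; scaled between full activation by ribose 5 phosphate and full inhibition by luteolin; about four in five hits inhibit and the cells do not say which; series up to 57 µM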
YjeE inh – YjeE (TsaE) inhibition, E. coli | Potency, µM | P0AF67 | 71,000 tested, 0.05% active | purified YjeE, fluorescence polarisation of a bound ADP probe | AID 605; active = well fitted falling curve; inconclusive = weaker or top-dose-only fall, or a rising curve; inactive = flat or poorly fitted curve;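 also: top concentration of the series not given in the record; excess ADP was the control for the full effect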
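Fluorescence polarization of a BODIPY Texas Red–ADP probe (2 uM) bound to purified YjeE (10 uM) was read after 15 min room-temperature incubation with compounds. Loss of polarization marks inhibitors; ADP serves as titrated control.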
Starred values were filed as active, the others as inactive; i = inactive; ? = inconclusive; / = no result given. These rows are one share of the data, so the mix of outcomes need not match the whole.

smiles	YjeE inh	Bst PK mod
COc1ccc(-c2nc(CS(=O)CC(=O)NCCCN3CC(C)CC(C)C3)c(C)o2)cc1OC (stereo not drawn)	i	>57
COc1ccc(OC)c(N/C(C)=C/C(=O)c2ccc(C)o2)c1	i	>57
Cc1cc(C)n(C(C)n2nc(C)cc2C)n1	i	>57
CC(=O)c1cccc(NC(=O)N2CCC(c3nnc(SCC(N)=O)n3C)CC2)c1	i	>57
N#Cc1nc(-c2ccccc2)oc1N1CCCCC1	i	>57
COc1ccccc1CNS(=O)(=O)c1cc(C)ccc1OC	i	>57
CC(C(=O)NC1=NCCS1)(C(F)(F)F)C(F)(F)F	i	>57
CC1(C)Cc2c(sc3nc(SCC(=O)NCc4ccco4)n(-c4ccccc4)c(=O)c23)CS1	/	>26
COc1cc2ccccc2cc1C(=O)OCC(=O)N1CCOCC1	i	>11
O=C(NCc1cccs1)C1CCC(CNS(=O)(=O)c2ccc(Br)s2)CC1 (stereo not drawn)	i	>57
CCC(c1nnnn1C(C)(C)C)N1CCN(c2cc(Cl)ccc2C)CC1 (stereo not drawn)	i	>57
N=C1C(c2nc3ccccc3c(=O)[nH]2)=C(O)CN1CCO	i	/
CCCCn1c(=O)[nH]c(=O)c2c1nc(COc1ccc(C#N)cc1)n2CCC	i	>57
CC1(C)CC(=O)c2sc(NC(=O)CN3CCCCC3)nc2C1	i	/
COc1ccccc1C(=O)Nc1ccccc1N1CCN(S(C)(=O)=O)CC1	i	>57
CCOC(=O)C1Cn2c(nc3c(c2=O)C2(CCCC2)Cc2ccccc2-3)S1 (stereo not drawn)	i	/
COC(=O)C1=C(N)Oc2cc(C)n(Cc3cccnc3)c(=O)c2C1c1cccc(OC)c1OC (stereo not drawn)	i	>57
COc1ccc(N2C3=[N+](CCCC3)CC2(C)O)cc1 (stereo not drawn)	i	>57
CCn1c(SCC(=O)N2CCCCC2)nnc1-c1ccc(S(=O)(=O)N2CCN(C)CC2)cc1	i	>57
O=C(c1cccc(S(=O)(=O)N2CCCCC2)c1)N1CCOCC1	i	>57
CCC1C(C#N)=C(SC)NC2=C1C(=O)CC(C)(C)C2 (stereo not drawn)	i	/
CC1CCCCN1CCn1c(=S)[nH]c2ncccc2c1=O (stereo not drawn)	i	>57
CCN(CCNC(=O)C1CCN(S(=O)(=O)c2cccc3cccnc23)CC1)c1ccccc1	i	/
COC(=O)c1cccc2c1-c1ccccc1/C2=N/O	i	i
O=C(NCc1ccccc1)N1CCN(c2ccccc2F)CC1	i	>57
CC(C)[C@@H](CC(=O)N[C@@H]1CCNC[C@H]1C(=O)N[C@H](CC(=O)N[C@@H](CCC(=O)O)CC(=O)O)Cc1c[nH]c2ccccc12)NC(=O)C[C@H](Cc1ccccc1)NC(=O)[C@@H]1CCCC[C@H]1N	i	/
CC(=O)NC(C)c1ccc(Cl)c(Cl)c1 (stereo not drawn)	i	/
COc1ccc(N(C(=O)COc2ccccc2)C2C=CS(=O)(=O)C2)cc1 (stereo not drawn)	i	>57
CCOc1cc2[nH]c(=O)n(CCCCC(=O)NC3CCCCC3)c(=O)c2cc1OCC	i	>57
O=C(O)C(Cl)(c1ccccc1)c1ccccc1	i	/
COc1ccc(CNC(=O)c2cccs2)cc1	i	/
COc1ccc(OC)c(-n2cnc3cc(C(=O)NCCCN4CCOCC4)ccc32)c1	i	>57
COC(=O)c1cc(Nc2cc(C)nc3ncnn23)cc(C(=O)OC)c1	i	/
O=C(CCN1CCc2ccccc21)c1ccc2c(c1)OCCO2	/	>26
Cc1cc(C)c(NC(=O)C2CSCCS2)c(C)c1 (stereo not drawn)	i	>57
CCOc1ccccc1NC(=O)C1=C(C)NC(=O)NC1c1cccc(OC)c1OC (stereo not drawn)	i	>57
Cc1ccc2cc(C)c(SCC#N)nc2c1	i	/
COC(=O)C(NC(=O)c1ccco1)(Nc1nc(C2CC2)cs1)C(F)(F)F (stereo not drawn)	i	>57
CCCn1c(CCC(=O)O)ccc1-c1cccs1	i	>57
O=C(CCCOc1ccccc1)N1CCCc2ccccc21	i	/
CN1CC2(C(=O)c3ccccc3)CN(C)CC(C(=O)c3ccccc3)(C1)C2	i	>57
Cc1cc2c(c(=O)n1CCN(C)C)C(c1ccc(Br)cc1)C(C#N)=C(N)O2 (stereo not drawn)	i	>57
O=C(c1ccco1)N1CCN(C(=O)c2cccc3c2C(=O)N(Cc2cccnc2)C3)CC1	i	/
Cc1cccc(-n2nnc(C(=O)NCc3ccccc3)c2N)c1	i	>57
O=C(CNS(=O)(=O)c1cccc2nsnc12)NC1CCCCC1	i	>57
O=C1c2ccccc2C(Nc2ccc3c(c2)OCCO3)N1Cc1ccc2c(c1)OCO2 (stereo not drawn)	i	/
CN(C)c1ccc(NC(=O)Nc2ccc3snnc3c2)cc1	i	>57
Cc1nc2nc(SCC(=O)N3CCOCC3)nn2c(C)c1Cc1c(F)cccc1Cl	i	/
O=C(CCCN1CCC(O)(c2ccc(Cl)cc2)CC1)c1ccc(F)cc1	i	>11
C=CCOC(=O)C1=C(C)N(C)C(=O)NC1c1cc2c(cc1Br)OCO2 (stereo not drawn)	i	/

Next entries follow:
smiles	YjeE inh	Bst PK mod
COc1ccc(N2CCN(c3oc(-c4ccc(OC)c(OC)c4)nc3C#N)CC2)cc1	i	>57
CN(C)c1ncc2nc(-c3ccc(Cl)cc3)c(=O)n(C3CC3)c2n1	i	/
CCOC(=O)c1c(C)nc(-c2ccccc2)nc1N	i	i
O=C1CCC(=O)O1	i	/
O=C(Nc1ccccc1C(=O)NCCCn1ccnc1)c1ccccc1	/	>11
COc1nc(-c2ccccc2)ccc1-c1noc(-c2cccnc2)n1	i	>57
Cc1nn(-c2ccccc2)c(N2CCCC2)c1/C=N/n1cnc2scc(-c3ccccc3)c2c1=O	i	>57
COc1ccccc1CNc1ccc(N2CCCCC2)cc1	i	>57
CCOc1cc(NC(=O)c2ccco2)c(OCC)cc1NC(=O)Cc1ccc(OC)c(OC)c1	i	>57
CC(C)NC(=O)CSc1nnc(-c2ccc(S(=O)(=O)N3CCCC3)cc2)n1CC1CCCO1 (stereo not drawn)	i	>57
Cc1noc(C)c1S(=O)(=O)N1CCCC(C(=O)N2CCC(C)CC2)C1 (stereo not drawn)	i	>57
CC(=O)OCC1=C(C(=O)O)N2C(=O)[C@@H](NC(=O)CSc3ccncc3)[C@@H]2SC1	i	/
Cc1cc(N2CCCC2=O)cc(C)c1S(N)(=O)=O	i	>57
COc1ccc(C(=O)n2cnc(N)n2)cc1	i	>57
N#CC(C(=O)O)=C1CCCC1	i	>57
N#Cc1ccc2ccn(CC(=O)NC3CCCCC3)c2c1	i	>57
Cc1ccnc(N2CCC(C(=O)Nc3ccc4c(c3)OCO4)CC2)n1	i	>57
c1ccc(CCn2nnnc2C(c2cccs2)N2CCN(Cc3ccc4c(c3)OCO4)CC2)cc1 (stereo not drawn)	i	>57
N#Cc1c(NC(=O)COC(=O)C2CC3C=CC2C3)oc(-c2ccccc2)c1-c1ccccc1 (stereo not drawn)	i	>57
CCn1c(SCc2nc3ccccc3[nH]2)nnc1-c1ccccc1OC	i	>57

Grouped by structure, the compounds so far containing a Cl atom.
smiles	YjeE inh	Bst PK mod
CCC(c1nnnn1C(C)(C)C)N1CCN(c2cc(Cl)ccc2C)CC1 (stereo not drawn)	i	>57
CC(=O)NC(C)c1ccc(Cl)c(Cl)c1 (stereo not drawn)	i	/
O=C(O)C(Cl)(c1ccccc1)c1ccccc1	i	/
Cc1nc2nc(SCC(=O)N3CCOCC3)nn2c(C)c1Cc1c(F)cccc1Cl	i	/
O=C(CCCN1CCC(O)(c2ccc(Cl)cc2)CC1)c1ccc(F)cc1	i	>11
CN(C)c1ncc2nc(-c3ccc(Cl)cc3)c(=O)n(C3CC3)c2n1	i	/

(continued)
smiles	YjeE inh	Bst PK mod
O=C1C(=O)N(CCN2CCOCC2)C(c2ccccn2)/C1=C(/O)c1ccc(F)cc1 (stereo not drawn)	/	>26
Nc1cc(C(=O)O)ccc1N1CCCCCC1	i	>57
OCCn1c(-c2ccc3c(c2)OCO3)csc1=Nc1ccccc1	i	/
Brc1ccc2nc(CSc3ncn[nH]3)cn2c1	i	>57
O=C(CSc1nnc(-c2ccccc2)n1-c1ccccc1)NCc1ccco1	i	/
O=C(c1n[nH]c(=O)c2ccccc12)N1CCN(c2ccc(F)cc2)CC1	i	>57
CCOC(=O)C1CCN(C(=O)COC(=O)CCOc2ccc(C)cc2)CC1	i	>57
CC(C)COC(=O)N1CCCC1C(=O)Nc1nccs1 (stereo not drawn)	i	>57
COc1ccc(-c2cc3nc(C)c(CCC(=O)N4CCCCC4)c(C)n3n2)c(OC)c1	i	>57
FC(F)(F)C(F)(F)C(F)(F)c1nnc2ccc(N3CCOCC3)nn12	i	>57
COc1ccc(N2CCN(C(=O)Cc3ccc(-n4c(=O)[nH]c5ccccc5c4=O)cc3)CC2)cc1	i	>57
c1ccc(CNC2=NCCCCC2)cc1	i	>57
CCOC(=O)N1CCC(NC(=O)CSCc2cnn(-c3ccccc3)c2-n2cccc2)CC1	i	>57
Cc1cc(C)nc(Nc2n[nH]c(-c3ccccc3Br)n2)n1	i	/
COc1cccc2[nH]c3c(=O)n(CCN(C)C)cnc3c12	i	>57
O=C(Cn1c(CN2CCCCC2)nc2ccccc2c1=O)NC1CCCCC1	i	>57
CC(=O)Nc1ccc(NC2(C)C(=O)c3ccccc3C2=O)cc1	i	/
CCC(C)Sc1nc2c(cnn2-c2ccc(C)c(C)c2)c(=O)[nH]1 (stereo not drawn)	i	/
COc1ccc(Nc2nc(N3CCCCC3)nc(N3CCCCC3)n2)c(OC)c1	i	/
CCn1c(=NC(=O)CSC(C)=O)sc2cc(F)ccc21	i	/
COc1cccc(C(=O)NC2CCN(C(=O)N3CCCCC3)CC2)c1	i	>57
Cc1cc(NC(=O)CSC2=NCCS2)no1	i	>57
O=C(Nc1cccnc1)c1scc2c1OCCO2	i	>57
COc1ccc(NC(=O)c2cnc3sccn3c2=O)cc1	i	/
O=C(O)c1n[nH]c2c1CCCC2	i	>57
CC(C)CCN1C(=O)c2ccc(C(=O)NCc3ccco3)cc2C1=O	i	>57
Clc1ccc(Cn2ncc3c(NCc4ccco4)ncnc32)c(Cl)c1	i	>57
COc1ccc(CNC(=O)Cc2ccc(OC)c(S(=O)(=O)N3CCOCC3)c2)cc1	i	>57
CC(C)COC(=O)C1C2C=CC3(CN(C(C)c4ccc(Br)cc4)C(=O)C13)O2 (stereo not drawn)	i	/
O=C(NCCN1CCN(c2ccccc2)CC1)c1cccn2c(=O)c3cc(Cl)ccc3nc12	i	>57
COc1ccc2[nH]c(=O)c(C(c3nnnn3C(C)(C)C)N(Cc3ccco3)CC3CCCO3)cc2c1 (stereo not drawn)	i	>57
CC(=O)Nc1ccc(SCC(=O)c2cc(C)n(Cc3cccs3)c2C)cc1	i	>57
CCOC(=O)C1C(=O)CC(C)(O)C(C(=O)OCC)C1c1cccs1 (stereo not drawn)	i	/
NCCCC[C@H](N[C@@H](CCc1ccccc1)C(=O)O)C(=O)N1CCC[C@H]1C(=O)O	i	/
O=C(NCc1ccco1)c1cccc(-c2nnc(-c3ccccc3)o2)c1	i	/
Cn1c(CSc2ncccn2)nnc1SCC(=O)N1CCCCC1	i	>57
COc1ccc(NC(=O)C2C3C=CC(C3)C2C(=O)NCc2ccco2)cc1 (stereo not drawn)	i	>57
N#CCCn1c(=O)c(-c2cccc(C#N)c2)nc2cnc(Oc3cccc(Cl)c3)nc21	i	/
COc1ccc(S(=O)(=O)CCC(=O)O)cc1	i	>57
CCCOC(=O)c1ccc(Oc2c(-c3ccc(OCC)cc3O)n[nH]c2C)cc1	i	>57
Cc1ccc(N(CC(O)CN2CCOCC2)S(=O)(=O)c2ccc3ccccc3c2)cc1 (stereo not drawn)	i	/
NS(=O)(=O)c1ccc(CNC(=O)NC2(c3ccccc3)CC2)cc1	i	/
Cc1cc(=O)oc2cc(OC(C)C(=O)O)c(Cl)cc12 (stereo not drawn)	i	>57
CCOC(=O)c1[nH]c2ccc(F)cc2c1NC(=O)C1=COCCO1	i	/
Cc1ccccc1N1CCN(c2ncnc3c2cnn3Cc2ccc(Cl)cc2)CC1	i	>57
CC(C)c1nc2n[nH]c(N)c2c2c1CCC2	/	>11
O=C1C(Cl)=C(N2CCOCC2)C(=O)N1CCc1ccccc1	i	>57
Cc1c(-c2ccco2)[n+](=O)c2c(n1[O-])CCC2	i	>57
CCOc1ccc(S(=O)(=O)NCCC(=O)OC(C)C(=O)N2CCc3ccccc32)cc1 (stereo not drawn)	i	>57
CCc1cccc(CC)c1N(COC)C(=O)Cn1nnc2ccccc21	/	6.7*

(continued)
smiles	YjeE inh	Bst PK mod
CCCCn1c(=O)[nH]c(=O)c2c1nc(-c1ccncc1)n2CCOC	i	>57
CCn1c(NC(=O)Nc2ccccc2OC)nc2ccccc21	i	>57
CCOc1ccccc1N1CCN(S(=O)(=O)c2cccc3nsnc23)CC1	i	?
Cc1ccc(S(=O)(=O)N(C)CCCC(=O)NCc2ccc3c(c2)OCO3)cc1	i	>57
